MARV entry inh: Marburg virus entry inhibition; Marburg virus pseudotyped entry inhibition, cell reporter; control for the full effect not named in the record; about a third of the inactives were read at about 46 µM; Potency, µM (titrated, usually from 37.8 µM), for the others: at the top dose activity change, negative = inhibition, hits mostly inhibitors; 300,000 tested, 1.8% active; AID 540276; active = well fitted inhibition curve with a large enough effect; inconclusive = small, poorly fitted or top-dose-only effect, or effect the other way; inactive = flat fitted curve, though single readings scatter; tested in HEK293 cells; about a fifth of its hits are not listed in these tables; note: % is set by controls: 0 for no effect and ±100 for the full control effect; luciferase read-out
SARS PLpro yeast: inhibitors of SARS-CoV papain-like protease in yeast. S. cerevisiae expressing SARS-CoV PLpro, growth rescue; control for the full effect not named in the record. 330,000 tested, 0.19% active. Potency, µM (series often up to 32.9 µM), for the others: at the highest dose activity, positive = growth rescue; active means well fitted rising curve with a large enough effect; inconclusive means small, poorly fitted or top-dose-only effect; inactive means no such curve, though single readings can be large or run the other way; note: 0% is about no effect; nearly all actives have a fitted effect of over 55% in size; growth read by luminescence after 48 h
RE007 growth inh: less growth of the S. pombe RE007 Vpr strain. S. pombe RE007 Vpr strain, BacTiter-Glo ATP luminescence, 24 h; control for the full effect not named in the record. Potency, µM (titrated, usually from 92.2 µM), inactives show at the highest dose activity change, negative = less growth. 360,000 tested, 0.21% active; active = well fitted falling curve with a large enough effect; inconclusive = small, poorly fitted or top-dose-only effect; inactive = no such curve, though single readings can be large or run the other way;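 note: % is set by controls: 0 for no effect and ±100 for the full control effect; nearly all actives have a fitted effect of over 50% in size; the assay follows cell death caused by Vpr and the record does not say whether a fall means rescue or toxicity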
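Fission yeast strain RE007, carrying one chromosomally integrated HIV-1 vpr copy, was seeded at OD 0.01 in PMG+AL medium with 23 nL pinned compound. After 24 h at 30 °C and 99% humidity, viability was read by BacTiter-Glo luminescence.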
Cruzain inh Det: cruzain (T. cruzi) inhibition with detergent. 200,000 tested, 0.43% active. AID 1478. P25779. purified cruzain, Z-FR-AMC fluorescence, 0.01% Triton. Potency, µM, for inactives: max response, negative = inhibition, usual class: inhibitors;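 note: plate controls were neutral wells for no effect and buffer without enzyme for full effect; nearly all actives have a fitted effect of over 40% in size; top concentration of the series not given in the record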
Target sequence (P25779 123-467 limits assumed): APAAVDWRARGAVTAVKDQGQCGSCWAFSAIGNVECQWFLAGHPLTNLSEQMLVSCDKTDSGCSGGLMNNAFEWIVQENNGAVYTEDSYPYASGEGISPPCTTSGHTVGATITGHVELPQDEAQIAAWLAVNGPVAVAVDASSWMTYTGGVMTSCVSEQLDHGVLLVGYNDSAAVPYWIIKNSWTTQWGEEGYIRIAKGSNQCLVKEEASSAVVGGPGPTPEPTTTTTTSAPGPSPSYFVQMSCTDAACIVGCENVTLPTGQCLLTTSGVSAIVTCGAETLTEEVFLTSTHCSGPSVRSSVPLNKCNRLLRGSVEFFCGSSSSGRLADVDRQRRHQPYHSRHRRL
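Detergent-containing arm of a paired screen for aggregation-based inhibition: 0.01% Triton X-100 present. Cruzain at 1.5 nM cleaved 2 uM Z-FR-AMC at pH 5.5 with 5 mM DTT; AMC fluorescence gain over 60 s measured activity.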
StopGo reporter: lowers the luciferase signal of an FMDV 2A StopGo reporter | Potency, µM (highest dose often 57.9 µM), for the others: at the top dose signal change, negative = less light | AID 1159524 | 410,000 tested, 1.2% active | human cells with a luciferase reporter of 2A StopGo recoding; control for the full effect not named in the record; active = well fitted falling curve with a large enough effect; inconclusive = small, poorly fitted or top-dose-only effect; inactive = no such curve, though single readings can be large or run the other way; tested in HEK293T cells; note: % is set by controls: 0 for no effect and ±100 for the full control effect; nearly all actives have a fitted effect of over 45% in size; luciferase light after 4 h
NS1 function inh: blocks influenza NS1 protein function | S. cerevisiae slowed by influenza A NS1, growth recovery by OD600 | Potency, µM (titrated, usually from 46.1 µM), inactives show at the highest dose activity, positive = more growth | 270,000 tested, 0.4% active | AID 2326; active means well fitted rising curve with a large enough effect; inconclusive means small, poorly fitted or top-dose-only effect; inactive means no such curve, though single readings can be large or run the other way; note: nearly all actives have a fitted effect of over 50% in size
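Growth recovery, yeast-based: influenza A NS1 expressed in S. cerevisiae causes slow growth, and suppressors are detected by OD600. The parent strain without NS1 is used as positive control.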
LASV entry inh: blocks Lassa virus binding to or entry into cells. Lassa virus pseudotype entry inhibition, cell reporter; control for the full effect not named in the record. Potency, µM (titrated, usually from 37.9 µM), for inactives: top-dose activity change, negative = inhibition, actives largely listed as inhibitors. 300,000 tested, 1.2% active. AID 540256; active means well fitted inhibition curve with a large enough effect; inconclusive means small, poorly fitted or top-dose-only effect, or effect the other way; inactive means flat fitted curve, though single readings scatter; tested in HEK293 cells; note: % is set by controls: 0 for no effect and ±100 for the full control effect; nearly all actives have a fitted effect of over 50% in size; luciferase read-out
Cruzain noTriton: inhibitors of Trypanosoma cruzi cruzain without detergent. P25779. purified cruzain, Z-FR-AMC fluorescence, no detergent. Potency, µM, for inactives: max response, negative = inhibition, hits mostly inhibitors. 200,000 tested, 2.3% active. AID 1476;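 note: plate controls were enzyme without inhibitor for no effect and buffer without enzyme for full effect; nearly all actives have a fitted effect of over 40% in size; top concentration of the series not given in the record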
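Purified cruzain at 1.5 nM, pre-incubated 15 min with compound at room temperature in 100 mM sodium acetate pH 5.5, 5 mM DTT, 0.00005% Triton X-100. Reaction started with 2 uM Z-FR-AMC; AMC fluorescence increase over 60 s gives rate.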
Starred values were filed as active, the others as inactive; ? = inconclusive; nt = not tested or not shown; [ ] = another dose, or the depositor's remark. Unless noted, calls come from the whole dose curve; as a rule, active = well fitted curve in the direction sought with a large enough effect; inconclusive = small, poorly fitted or top-dose-only effect, or another doubt; inactive = no such curve, though single readings can be large; an effect the other way counts as inactive or inconclusive. Potency is the fitted concentration of half-maximal effect.

SMILES | MARV entry inh | SARS PLpro yeast | RE007 growth inh | Cruzain inh Det | StopGo reporter | NS1 function inh | LASV entry inh | Cruzain noTriton
CCOC(=O)c1c(C)n(COCCO)c2ccc(O)cc12 | 0% | -6% | 0% | 0.8% | -3% | 4% | ? | -16%
COC(=O)C1SCC2C(=O)N(Cc3ccc(Cl)cc3)CC(=O)N21 (centres undefined) | 6%[46.1 µM] | 0% | 7% | nt | 8% | nt | -13% | nt
CCC(=O)NC(=S)Nc1ccc(S(=O)(=O)NC2CCCCC2)cc1 | -2% | 7% | -2% | nt | 51%[activator] | -14% | -8% | nt
O=C(N/N=C/C1CC2CCC1C2)C1CC1 (centres undefined) | nt | 3% | 0% | nt | -17% | 8% | nt | nt
Cc1ccc(-c2nnn(CC(=O)NCCc3ccc4c(c3)OCO4)n2)o1 | 4%[46.1 µM] | -8% | -7% | 1.0% | -16% | -8% | 1% | 2%
Cn1c(=O)n(C)c2cc(N3CCOCC3)c(NS(=O)(=O)c3cccc(C#N)c3)cc21 | nt | nt | nt | -1.2% | 9% | nt | -18%[46.1 µM] | 3%
O=C(COc1ccc(S(=O)(=O)N2CCCCC2)cc1)N1CCCCCC1 | 0% | -1% | 1% | 0.9% | 0% | -15% | -11% | -3%
CCS(=O)(=O)Nc1cc(OC)c(OC)cc1Cc1nccc2cc(OC)c(OC)cc12 | 0%[46.1 µM] | 1% | -21% | nt | -7% | -7% | 17% | nt
CCCCc1nc(N)c(C#N)c(-c2ccco2)c1CCC | ? | ? | 7% | 25µM* | nt | 14% | -25% | 20µM*
Cc1cccc(C2=NCC(=O)N(CC(=O)NCc3ccco3)c3sc4c(c32)CCCC4)c1 | -27% | -18% | -11% | -12% | ? | -55% | ? | ?
CC(C)Cc1csc(NC(=O)c2ccccc2Cl)c1C(=O)O | 3% | -17% | -4% | -8.2% | -14% | -80% | 0% | 0%
O=C(Nc1ccc2c(c1)OCCO2)C(=O)c1c[nH]c2ccccc12 | ? | 0% | -2% | nt | ? | 3% | ? | nt
Cc1cc(C(=O)CSc2ncccn2)c(C)n1-c1cccc(F)c1 | ? | -9% | 15% | -5.9% | 17% | 15% | ? | 0%
COc1ccc(S(=O)(=O)N2CCCCC2)cc1NC(=O)CN(C)C1CCCCC1 | ? | 0% | 1% | nt | 16% | nt | ? | nt
O=C(NC1CCCC1)C(c1ccncc1)N(C(=O)c1csnn1)c1cccc(Cl)c1 (centres undefined) | -17%[46.1 µM] | -12% | -20% | nt | 3% | 10% | -13% | nt
CC1=[N+]([O-])C(C)(C)C(c2ccc(Br)cc2)=[N+]1[O-] | ? | 12% | -8% | -2.1% | 0% | 4% | 16% | 4%
NC1=NC(=O)/C(=C/c2cn(CCC(=O)O)nc2-c2ccc(F)cc2)S1 | 1% | 17% | 4% | -8.7% | -18% | 1% | 0% | -13%
CCS(=O)(=O)N1Cc2ccccc2CC1C(=O)Nc1nc2ccc(F)cc2s1 (centres undefined) | -23% | -2% | 0% | -9.0% | 31%[activator] | -11% | ? | 13µM*
CC(=O)Nc1cccc(-c2csc(Nc3ccc(C)cn3)n2)c1 | ? | -37% | 53% | -19% | -33% | 14% | 1.8µM* | 9%
CC1=C([N+](=O)[O-])C(c2ccccc2)NC(=O)N1 (centres undefined) | 4% | -4% | 0% | nt | -7% | 5% | ? | nt
CCCC/C(=N\O)c1c[nH]c2ccccc12 | 18% | -9% | 4% | -1.7% | nt | -89% | ? | -7%
CCCC(C)C(=O)Nc1ccc(S(N)(=O)=O)cc1 (centres undefined) | ? | 0% | -5% | nt | -11% | 3% | 18%[46.1 µM] | nt
COc1ccc(N(CC(=O)Nc2cccc([N+](=O)[O-])c2C)S(C)(=O)=O)cc1OC | ? | -12% | -8% | -3.1% | -13% | 1% | 4% | -7%
CC(=O)OC1CCC2(C)C(CCC3C2CC(=O)C2(C)C3CC(C(C(C)=O)C(C)=O)C2C(C)=O)C1 (centres undefined) | 16%[46.1 µM] | nt | 33% | nt | 10% | nt | -8%[46.1 µM] | nt
CCOC(=O)c1c(NC(=O)/C=C\C(=O)O)sc(C)c1-c1ccccc1 | -23%[46.1 µM] | -1% | 6% | nt | ? | -5% | -13% | nt

(more compounds)
SMILES | MARV entry inh | SARS PLpro yeast | RE007 growth inh | Cruzain inh Det | StopGo reporter | NS1 function inh | LASV entry inh | Cruzain noTriton
Cc1cc(S(=O)(=O)Nc2c(C)nc3nc[nH]n3c2=O)ccc1F | 14%[46.1 µM] | 0% | 25% | nt | -10% | 6% | 14% | nt
Cc1cccc(CCNC(=O)c2c[nH]c3ccc(S(=O)(=O)Nc4ccccc4F)cc3c2=O)c1 | nt | nt | nt | 8.2% | -15% | nt | ? | -12%
CCCCCn1c(=O)c(C(=O)NCCc2ccccc2)c(O)c2ccccc21 | -15% | 4% | -8% | nt | -14% | 24% | -22% | nt
Clc1cccc(-c2nnc(CN3CCN(c4ccccn4)CC3)o2)c1 | 2%[46.1 µM] | nt | nt | 0.3% | -8% | nt | 4%[46.1 µM] | -7%
COc1ccc(NS(=O)(=O)c2cccc(C(=O)NN=Cc3cc(Br)c(O)c(Br)c3)c2)cc1 | -2%[46.1 µM] | 6% | 15% | nt | -2% | nt | -1%[46.1 µM] | nt
O=C(O)[C@@H]1CCCN1C(=O)c1ccco1 | ? | -5% | -3% | -0.7% | -24% | -19% | 0% | -3%
COc1cccc(Nc2nnc(SCN3C(=O)c4ccccc4C3=O)s2)c1 | 3% | 4% | -16% | -3.0% | 11% | 2% | ? | ?
COC1=C(Nc2ccc(C)cc2)C(=O)c2ccccc2C1=O | ? | -24% | ? | -9.7% | -15% | -5% | ? | -12%
COc1ccc(S(=O)(=O)c2c(Nc3c(C)cccc3C)sc(C(=O)c3ccc(F)cc3)c2N)cc1 | nt | nt | nt | 4.8% | 0% | nt | ? | 6.3µM*
CCN(C(=O)c1cc2c(s1)-c1ccccc1OC2)c1cccc(C(F)(F)F)c1 | -1%[46.1 µM] | nt | nt | -3.6% | ? | nt | nt | 5%
CCOc1ccc(N2C(=O)CC(NC3CCN(C(=O)c4cccs4)CC3)C2=O)cc1 (centres undefined) | nt | -29% | ? | nt | -15% | -21% | nt | nt
CCOC(=O)C(C(=O)Nc1cccc(C)c1)C1CCCCC1 (centres undefined) | ? | -7% | -2% | -3.6% | nt | -3% | 1% | 0%
COc1ccccc1NC(=O)C1=C(C)NC(SCC(=O)c2ccccc2)=C(C#N)C1c1ccco1 (centres undefined) | ? | -4% | 19% | -3.7% | ? | -4% | -5% | 16µM*
O=C(Cn1nc(Cc2cccnc2)c2ccccc2c1=O)Nc1cc(F)ccc1F | nt | 1% | -6% | nt | -11% | 6% | nt | nt
Cc1cc(=O)n(C)c(=O)n1CCCNc1ccccc1 | -11% | 0% | -4% | 2.1% | nt | 1% | 14% | -21%
Cc1ccc(Nc2nc(=O)[nH]nc2C)cc1 | 7% | -2% | 16% | 2.7% | 3% | 8% | -18% | -8%
CCN(CC)S(=O)(=O)c1ccc(N2C(=O)Nc3ccccc3N2O)cc1 | ? | 3% | 1% | 0.3% | -12% | 7% | 0% | 4%
O=C(NCc1cccnc1)C1CC2c3ccccc3C1c1ccccc12 (centres undefined) | 3%[46.1 µM] | -8% | 15% | 1.8% | -8% | -19% | ? | 9%
Fc1ccc(-c2ccnc3nc(-n4cccc4)nn23)cc1 | 9% | 13% | 11% | -6.8% | -4% | -3% | 0% | -12%
c1ccc2c(c1)NC1(CCCCC1)n1c-2nc2ccccc21 | -12% | -3% | -22% | -10% | 16% | -40% | -2% | 3%
O=C(OCc1cccc([N+](=O)[O-])c1)c1cccnc1 | 6%[46.1 µM] | -1% | 1% | nt | 0% | 4% | 0% | nt
Fc1cccc(CSc2nc3ncc(Cl)cc3[nH]2)c1 | -4%[46.1 µM] | -2% | 4% | nt | 24% | 3% | 10% | nt
CCN(CC)S(=O)(=O)c1cc(NC(=O)Cn2ncc(Cl)c(Cl)c2=O)ccc1C | nt | 1% | 9% | nt | -93% | 3% | nt | nt
CCC1(C)CC(CCN(Cc2ccco2)C(C)=O)(c2ccccc2)CCO1 (centres undefined) | nt | 1% | -10% | nt | -19% | 0% | nt | nt
COc1ccc(S(=O)(=O)N(C)C)cc1NS(=O)(=O)c1ccc(F)c(F)c1F | -5% | 14% | 9% | -2.8% | 17% | 21% | 0% | -8%
CCN(CC)S(=O)(=O)c1ccc(C(=O)NCCc2cc3c(OC)ccc(OC)c3[nH]c2=O)cc1 | ? | -5% | 16% | 2.8% | ? | -7% | ? | ?
Cc1nc(N)nc(Cl)c1CCC1OCCO1 | 0%[46.1 µM] | nt | -7% | nt | -5% | nt | -7%[46.1 µM] | nt
CC(C)(C)N(NC(=O)Nc1ccc(Cl)c(Cl)c1)C(=O)c1ccccc1 | ? | 0% | -11% | -12% | ? | 12% | ? | -4%
O=C(C[n+]1cccc(CNC(=O)c2ccc(OC(F)F)cc2)c1)Nc1cccc(C(F)(F)F)c1 | 1% | -13% | 14% | -3.3% | -10% | 0% | 9% | 11%

Ordered by SMILES length (low to high): some entries from above
SMILES | MARV entry inh | SARS PLpro yeast | RE007 growth inh | Cruzain inh Det | StopGo reporter | NS1 function inh | LASV entry inh | Cruzain noTriton
COc1cccc(Nc2nnc(SCN3C(=O)c4ccccc4C3=O)s2)c1 | 3% | 4% | -16% | -3.0% | 11% | 2% | ? | ?
CCCCCn1c(=O)c(C(=O)NCCc2ccccc2)c(O)c2ccccc21 | -15% | 4% | -8% | nt | -14% | 24% | -22% | nt
CCN(CC)S(=O)(=O)c1cc(NC(=O)Cn2ncc(Cl)c(Cl)c2=O)ccc1C | nt | 1% | 9% | nt | -93% | 3% | nt | nt

Screens deposited in PubChem BioAssay by National Center for Advancing Translational Sciences (NCATS).
